GIRK2 act: GIRK2 channel activation. calls only for hits at 25 µM. HEK293-GIRK2 thallium flux, Thallos fluorescence. AID 1259325. P48051. 63,000 tested, 0.05% active;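 active means among the strongest 0.2% of first-round signals and kept after retests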;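 further: first round at about 10 µM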
Target sequence (P48051 whole entry, looked up): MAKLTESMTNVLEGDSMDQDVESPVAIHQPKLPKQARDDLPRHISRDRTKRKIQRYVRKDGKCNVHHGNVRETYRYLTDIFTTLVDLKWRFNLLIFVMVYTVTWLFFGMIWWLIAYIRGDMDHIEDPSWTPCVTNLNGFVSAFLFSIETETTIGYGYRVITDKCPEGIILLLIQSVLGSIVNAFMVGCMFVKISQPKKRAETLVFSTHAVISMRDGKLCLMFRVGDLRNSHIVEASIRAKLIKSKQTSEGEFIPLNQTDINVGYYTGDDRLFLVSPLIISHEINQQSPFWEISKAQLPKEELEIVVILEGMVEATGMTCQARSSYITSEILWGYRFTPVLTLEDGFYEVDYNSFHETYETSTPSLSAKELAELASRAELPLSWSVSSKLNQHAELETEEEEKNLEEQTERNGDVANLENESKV
Calls only; i = inactive.

Preview:
SMILES | GIRK2 act
COc1ccc2cc(-c3nc4ccc([N+](=O)[O-])cc4[nH]3)c(=O)oc2c1 | i
O=C(Cc1ccccc1Cl)N1CCN(c2cc(N3CCCCC3)ncn2)CC1 | i
Cc1nc(-c2ccccc2Cl)sc1CNC(=O)c1ccc2c(c1)OCO2 | i
CSc1ccc(/C=C2/C(C)=C(CC(=O)NCc3ccc(C(F)(F)F)cc3)c3cc(F)ccc32)cc1 | i
CS(=O)(=O)c1cccc(C(=O)N2CCC(Oc3nc4c(F)cccc4s3)CC2)c1 | i
COc1ccc(CCNC(=O)NNC(=O)c2cccn(Cc3cccc(F)c3)c2=O)cc1 | i
CCCC(=O)N1CCC2(CCc3ccccc3O2)CC1 | i

The whole of this part, from the first entry:
SMILES | GIRK2 act
COc1ccc2cc(-c3nc4ccc([N+](=O)[O-])cc4[nH]3)c(=O)oc2c1 | i
O=C(Cc1ccccc1Cl)N1CCN(c2cc(N3CCCCC3)ncn2)CC1 | i
Cc1nc(-c2ccccc2Cl)sc1CNC(=O)c1ccc2c(c1)OCO2 | i
CSc1ccc(/C=C2/C(C)=C(CC(=O)NCc3ccc(C(F)(F)F)cc3)c3cc(F)ccc32)cc1 | i
CS(=O)(=O)c1cccc(C(=O)N2CCC(Oc3nc4c(F)cccc4s3)CC2)c1 | i
COc1ccc(CCNC(=O)NNC(=O)c2cccn(Cc3cccc(F)c3)c2=O)cc1 | i
CCCC(=O)N1CCC2(CCc3ccccc3O2)CC1 | i
Cc1ccc(NC(=O)CSc2nc3c(sc(=S)n3-c3ccccc3C)c(=O)[nH]2)c(Cl)c1 | i
Cc1ccc2[nH]c3c(=O)n(CCC(=O)Nc4ccccc4)cnc3c2c1 | i
Cc1ccc(-n2c(C)cn3c4c(=O)[nH]c(=O)n(C)c4nc23)cc1Cl | i
COc1ccccc1CCNC(=O)c1csc(Nc2ccc(S(C)(=O)=O)cc2)n1 | i
Cc1ccc(NC(=O)N2CC(c3nc(-c4ncccn4)no3)C2)cc1 | i
CCOc1ccc(-c2cc3c(=O)n(Cc4nc(-c5ccc(C)c(C)c5)no4)ncn3n2)cc1 | i
COc1ccc(Nc2ncnc3sc(C)cc23)c(OC)c1 | i
O=c1cccnn1CCCNS(=O)(=O)c1ccccc1C(F)(F)F | i
NC(=O)c1ccnc2nc[nH]c12 | i
Cc1cccc(C)c1OCCOCC(O)CN1CCN(Cc2ccccc2)CC1 (configuration not stated) | i
CN(C)C(=O)c1nnn(-c2ccc(NC(=O)c3ccc4c(c3)OCO4)cc2)n1 | i
CC(C(=O)NCCn1nc(-c2ccccc2)ccc1=O)n1nc(-n2cccn2)ccc1=O (configuration not stated) | i
O=C(NCCc1ccc(F)cc1)c1cc(=O)c(OCc2ccc(F)cc2)c[nH]1 | i

(further entries)
SMILES | GIRK2 act
O=C(c1ccc(OCCN2CCCCC2)cc1)c1c(-c2ccc(O)cc2)sc2cc(O)ccc12 | i
CC(=O)c1ccc(OCC(=O)Nc2cc(OCc3ccccc3)ncn2)cc1 | i
CC(C)S(=O)(=O)N1CCC(Oc2ccc(Cl)cn2)CC1 | i
COc1ccccc1N1CCN(CCNC(=O)c2ccccc2)CC1 | i
Cc1cc(C)c2c(CN3CCN(Cc4ccc5c(c4)OCO5)CC3)cc(=O)oc2c1 | i
COCCc1nnc(NC(=O)c2ccc(S(C)(=O)=O)cc2)o1 | i
CC(C)(O)Cn1c(=O)c(Oc2ccc(F)cc2F)cc2cnc(NC3CCOCC3)nc21 | i
Cc1noc(-c2ccn3c(=O)n(Cc4noc(-c5ccccc5C)n4)nc3c2)n1 | i
CC(C)Sc1ccc(CC(=O)N2CCN(c3ccc(-c4noc(C(F)(F)F)n4)cn3)CC2)cc1 | i
CCCn1c(=O)c2ccc(C(=O)NC(C)CC)cc2n2c(=O)n(CC(N)=O)nc12 (configuration not stated) | i
O=C(O)C(Cc1ccc(O)cc1)NC(=O)C1C(c2ccc(O)cc2)C(C(=O)NC(Cc2ccc(O)cc2)C(=O)O)C1c1ccc(O)cc1 (configuration not stated) | i
O=C(Nc1cc(N2CCCCC2)ncn1)c1cccs1 | i
COc1ccc(-c2c(C)oc3cc(OCC(=O)OC(C)C)ccc3c2=O)cc1OC | i
Cc1noc(C2CC(=O)N(c3ccc(F)cc3)C2)n1 (configuration not stated) | i
CC(=O)Cn1c(=O)c2c(nc3n2CC(C)CN3c2ccc(Br)cc2)n(C)c1=O (configuration not stated) | i
Cc1cc(CN2CCC(CNC(=O)C(=O)Nc3cc4c5c(c3)CCC(=O)N5CCC4)CC2)c(C)o1 | i
O=S(=O)(/C=C/c1ccccc1)N1CCC(CSCc2ccco2)CC1 | i
O=C(Nc1nccs1)C1CCN(C(=O)c2cc(-c3ccco3)on2)CC1 | i
Cc1ccc(NC(=O)N2CCN(c3cc(Nc4ccccn4)ncn3)CC2)cc1Cl | i
Cc1ccc(C(O)CN2CCN(c3ccccn3)CC2)cc1 (configuration not stated) | i

Following part
SMILES | GIRK2 act
CCCCOc1ccc(NC(=O)NCC2CCN(c3cnccn3)CC2)cc1 | i
CCOc1ccc(C(=O)Nc2cnc(Oc3ccccc3F)nc2)cc1 | i
COc1cccc2cc(C(=O)Nc3ccc4c(C)cc(=O)[nH]c4c3)oc12 | i
COc1cc(C(=O)Nc2nnc(-c3ccc(SC)cc3)o2)cc(OC)c1OC | i
Cc1ccc(S(=O)(=O)N2CCN(S(=O)(=O)N3CCC(C)CC3)CC2)cc1C | i
COc1ccccc1-c1cc(C(=O)NCCn2ncccc2=O)[nH]n1 | i
Cn1c(-c2nc(C(=O)NCC(N)=O)cs2)cc2ccccc21 | i
COc1cccc(CNC(=O)Cn2cccc(-c3nc(-c4cnccn4)no3)c2=O)c1OC | i
CCc1noc(-c2ccnc(SCC(=O)Nc3ccc(Br)cc3)c2)n1 | i
O=C(CN1CCN(Cc2nc3ccccc3[nH]2)CC1)NC1CCCC1 | i
O=C(CCC1=NS(=O)(=O)c2ccc(C(F)(F)F)cc2N1)N1CCN(c2ccccc2F)CC1 | i
Cc1ccc(NC(=O)c2cccc(NS(=O)(=O)c3ccc(F)c(Cl)c3)c2)cc1 | i
C=CCOc1ccc(C2C(C(=O)c3ccc(C)o3)=C(O)C(=O)N2c2cc(C)on2)cc1 (configuration not stated) | i
CC(=O)c1ccc(NS(=O)(=O)c2ccc(C(C)(C)C)cc2)cc1 | i
Cn1nc(CNS(=O)(=O)Cc2cccc(F)c2)cc1-c1ccco1 | i
CCC1Oc2ccccc2C(=O)N(Cc2ccccc2F)C1=O (configuration not stated) | i
CC(C)C(=O)N1CCCc2ccc(NC(=O)C(=O)NCCC(O)C3CC3)cc21 (configuration not stated) | i
O=C(CSC1CCCC1)Nc1ccc2c(c1)C(=O)NCC2 | i
Cc1cccn2c(=O)cc(OCC(=O)NC3CCCCC3)nc12 | i
COc1cccc(NC(=O)Nc2nnc(-c3cccs3)o2)c1OC | i

Next records follow.
SMILES | GIRK2 act
COc1cc(C)c(C)cc1S(=O)(=O)N(Cc1ccoc1)Cc1cccs1 | i
CCn1cc(C(=O)Nc2cccnc2)c(=O)c2cc(OC)ccc21 | i
COc1ccc(F)cc1S(=O)(=O)N1CC(c2nc(-c3ccccn3)no2)C1 | i
O=C1CCSCC(C(=O)NCc2ccco2)N1 (configuration not stated) | i
CCOCC(=O)N1CCC2(CC1)OCCS2 | i
Cc1ccc(-c2ccc(N3CCCC(C(=O)NC4CCCC4)C3)nn2)cc1C (configuration not stated) | i
COc1ccc(S(=O)(=O)N2CCCOC2CNC(=O)C(=O)NC2CCCCCC2)cc1C (configuration not stated) | i
CCOc1ccc(C(=O)c2cnc3ccc(Cl)cc3c2N2CCCC2)cc1 | i
CC(C)c1cc(=O)[nH]c(-n2nc(-c3cccs3)cc2NC(=O)c2cccc(F)c2)n1 | i
CCOc1ccccc1-n1ccn(CC(=O)Nc2ccccc2Cl)c(=O)c1=O | i
CC(C)c1ccc(Cc2cnc(N3C(=N)SCC3=O)s2)cc1 | i
Cc1nc(C)c(-c2ccc(=O)n(CCNC(=O)c3ccc(S(N)(=O)=O)cc3)n2)s1 | i
O=C(CSc1ccc(Cl)cc1)N1CCOCC1 | i
Cc1cc[nH]c1C(=O)O | i
CC1=C(C(=O)Nc2ccccc2)C(c2ccc(C)o2)n2c(s/c(=C/c3ccoc3)c2=O)=N1 (configuration not stated) | i
CCCNC(=O)C1CCC(Cn2c(=O)c3sccc3n(Cc3ccccc3C)c2=O)CC1 (configuration not stated) | i
CN(C)S(=O)(=O)c1ccc(C(=O)Nc2cccc(-c3ccn[nH]3)c2)cc1 | i
O=C(CSCc1ccccc1)NCC1(O)CCc2ccccc2C1 (configuration not stated) | i
CCOc1ccc(C(=O)N2CCCN(c3cc(-c4ccc5c(c4)OCO5)[nH]n3)CC2)cc1 | i
COc1ccc(-c2coc3cc(OC(=O)c4ccco4)ccc3c2=O)cc1 | i
COc1cc(-c2nnc(NC(=O)Cc3ccc(C)cc3C)o2)cc(OC)c1OC | i
Cc1nc(-c2ccccc2F)sc1CNC(=O)C1CC1 | i
COc1cc(OC)c2c(=O)cc(-c3ccccc3)oc2c1 | i
COc1cccc2sc(OC3CN(S(=O)(=O)c4ccc(NC(C)=O)cc4)C3)nc12 | i
O=C(NCC#CCOc1cccc(C(F)(F)F)c1)c1ccc2nc[nH]c2c1 | i

Reprinted at random: 6 entries already listed.
SMILES | GIRK2 act
COc1cc(-c2nnc(NC(=O)Cc3ccc(C)cc3C)o2)cc(OC)c1OC | i
O=C(CSCc1ccccc1)NCC1(O)CCc2ccccc2C1 (configuration not stated) | i
CCOc1ccc(C(=O)N2CCCN(c3cc(-c4ccc5c(c4)OCO5)[nH]n3)CC2)cc1 | i
Cc1nc(-c2ccccc2F)sc1CNC(=O)C1CC1 | i
COc1ccc(-c2coc3cc(OC(=O)c4ccco4)ccc3c2=O)cc1 | i
O=C1CCSCC(C(=O)NCc2ccco2)N1 (configuration not stated) | i

(next part)
SMILES | GIRK2 act
COc1ccc(-c2noc(-c3cccn(CC(=O)Nc4ccccc4)c3=O)n2)cc1OC | i
CC(C)(C)Oc1ccc(/C=C2\C=C(CC(=O)O)c3cc(F)ccc32)cc1 | i
COc1ccc(-c2nc(C#N)c(N3CCN(C(=O)c4ccco4)CC3)o2)cc1 | i
COc1ccc(C(C)Nc2ncc3c(=O)n(-c4ccccc4)c(=O)[nH]c3n2)cc1OC (configuration not stated) | i
COc1ccc(C(=O)Nc2oc3ccccc3c(=O)c2-c2ccc3c(c2)OCO3)cc1 | i
COC(=O)C1CCN(C(=O)CCc2csc(NC(=O)c3ccc(=O)[nH]c3)n2)CC1 | i
COc1ccc(CNc2nccn(Cc3ccc(Cl)cc3)c2=O)cc1 | i
COc1cccc(CNC(=O)C2CCCN(c3ccc(-c4ccc(Cl)cc4)nn3)C2)c1 (configuration not stated) | i
COc1ccc(NC(=O)CSc2nccn2-c2cccc(C(=O)Nc3ccccc3)c2)cc1OC | i
COc1cccc(OC)c1C(=O)NCc1sc(-c2ccccc2)nc1C | i
COC1(C)C(O)C(=O)C(C)=C(Oc2cc(C)cc(O)c2C)C1O (configuration not stated) | i
CCOC(=O)Cn1c(=O)c2c(nc3n(CC(=O)OCC)c(-c4ccccc4)cn23)n(C)c1=O | i
COCC(=O)N1CCC(c2ccc(C(=O)OC)cc2)CC1 | i
Cc1ccc(NC(=O)CSc2nccnc2N2CCCC(C)C2)c(C)c1 (configuration not stated) | i
CC(O)Cn1c(N/N=C\C=C\c2ccc([N+](=O)[O-])o2)nc2c1c(=O)[nH]c(=O)n2C (configuration not stated) | i
O=c1c(-c2ccccc2)c1-c1ccccc1 | i
O=c1n(Cc2ccc3c(c2)OCO3)nc2c(-c3nc(-c4ccccc4)no3)cccn12 | i
Cn1nc(CNC(=O)c2cccn(C)c2=O)cc1-c1ccco1 | i
COC(=O)Cn1c(=O)c2c(nc3n(C(C)C)c(C)cn23)n(C)c1=O | i
O=C(CCCC[C@H]1SC[C@@H]2NC(=O)N[C@@H]21)NCCCCC(NC(=O)CCN1C(=O)C=CC1=O)C(=O)O (some centres not stated) | i
Cc1ccc(-n2nnc(C(=O)O)c2C)cc1 | i
Cc1c(C)n2c3c(=O)[nH]c(=O)n(C)c3nc2n1CCN1CCN(Cc2ccccc2Cl)CC1 | i
COc1ccc(S(=O)(=O)NCC2(c3ccccc3)CCOCC2)cc1Cl | i
Cn1nccc1C(=O)N1CCC(Oc2nc3ccccc3s2)CC1 | i
CN(c1ccsc1C(=O)NC1CCCCCCC1)S(=O)(=O)c1ccccc1 | i

(list continues)
SMILES | GIRK2 act
Cc1cc(C)n(CCNC(=O)COc2ccc(Cl)cc2)n1 | i
CCOC(=O)CCC(=O)N1CCC(CSc2nc(C)cs2)CC1 | i
COc1cc(/C=C2\SC(=S)N(c3cccc(C)c3)C2=O)cc(OC)c1OC | i
CC(C(=O)NCc1ccncc1)n1nc(-c2ccccc2)ccc1=O (configuration not stated) | i
O=C(NC1(c2nc(C3CC3)no2)CCCCC1)c1ccc(Br)o1 | i
CCCn1cc(-c2nc(-c3ccc(Br)cc3)no2)c(=O)c2cc(F)ccc21 | i
Cc1ccc2c(Nc3cccc(Cl)c3)c(C(=O)N3CCCC3)cnc2n1 | i
CCCCC(=O)N(Cc1ccc(-c2ccccc2-c2nn[nH]n2)cc1)[C@H](C(=O)O)C(C)C | i
COc1cc(C)c(S(=O)(=O)N2CCN(c3ccc(-c4ccncc4)nn3)CC2)cc1C | i
COc1ccc(NC(=O)CSc2nnc(C(C)C)c3cnn(-c4ccc(C)cc4)c23)cc1OC | i
CCCc1cnc2c(c1SCC(=O)Nc1ccc3c(c1)OCCO3)c(=O)n(C)c(=O)n2C | i
CCOC(=O)COC(=O)c1sc2nc(SCC(=O)OCC)nc(N)c2c1C | i
NS(=O)(=O)c1ccc(C(=O)NCCOc2cc(N3CCCC3)ncn2)cc1 | i
Cc1ccc2ncc(C#N)c(N3CCC(C(=O)Nc4ccc(F)cc4)CC3)c2c1 | i
O=C(Nc1cnc(N2CCN(c3ccccn3)CC2)nc1)Nc1ccc(F)c(Cl)c1 | i
O=C(COc1ccccc1F)Nc1nnc(COc2cccc3ccccc23)o1 | i
Clc1ccc(Nc2nnc(Cc3ccncc3)c3ccccc23)cc1 | i
Cc1c(OC(=O)N2CCOCC2)ccc2c1O/C(=C\c1ccc3c(c1)OCO3)C2=O | i

Screening data: PubChem, Vanderbilt University

A portion of the library (hit frequency here may not be typical).
